Bioassay records as filed in PubChem BioAssay.
Six1-Eya2 blk = inhibitors of human Six1/Eya2 interaction. actives 0.56% (n = 360,000). activity change, % (no concentration beside the values). AlphaScreen GST-Six1/His-Eya2 binding, biochemical; stronger effect = lower value; control for the full effect not named in the record. AID 651725. Q15475+O00167; in the data active = activity change below about -65%; inconclusive = about -30% to -65%; inactive = above about -30%; note: % is set by controls: 0 for no effect and ±100 for the full control effect; compound concentration not given in the record
Target sequence (O00167 whole entry, looked up): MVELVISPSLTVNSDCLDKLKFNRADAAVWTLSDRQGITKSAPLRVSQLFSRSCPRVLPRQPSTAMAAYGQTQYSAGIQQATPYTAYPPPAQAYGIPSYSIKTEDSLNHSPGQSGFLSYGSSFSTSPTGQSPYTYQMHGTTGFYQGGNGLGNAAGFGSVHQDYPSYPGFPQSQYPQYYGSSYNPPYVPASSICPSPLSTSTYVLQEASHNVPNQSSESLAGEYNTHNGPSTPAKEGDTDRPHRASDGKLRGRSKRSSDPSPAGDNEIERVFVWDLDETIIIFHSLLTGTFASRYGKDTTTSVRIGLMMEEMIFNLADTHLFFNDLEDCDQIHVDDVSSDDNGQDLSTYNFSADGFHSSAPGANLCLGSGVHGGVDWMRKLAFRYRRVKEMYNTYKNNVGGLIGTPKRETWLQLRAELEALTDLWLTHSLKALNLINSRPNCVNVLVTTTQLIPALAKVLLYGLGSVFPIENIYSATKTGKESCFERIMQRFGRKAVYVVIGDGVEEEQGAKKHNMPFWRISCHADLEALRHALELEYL
Target sequence (Q15475 whole entry, looked up): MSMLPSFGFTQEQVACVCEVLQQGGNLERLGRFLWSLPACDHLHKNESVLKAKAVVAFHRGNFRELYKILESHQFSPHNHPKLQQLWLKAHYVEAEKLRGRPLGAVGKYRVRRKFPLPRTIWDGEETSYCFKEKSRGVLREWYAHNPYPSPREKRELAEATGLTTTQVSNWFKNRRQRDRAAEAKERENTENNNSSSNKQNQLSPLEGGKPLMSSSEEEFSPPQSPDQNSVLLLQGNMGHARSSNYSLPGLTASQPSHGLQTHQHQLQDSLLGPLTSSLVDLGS
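Six1/Eya2 binding was read as AlphaScreen signal after compounds were pinned into GST-Six1 plus His-tagged Eya2 (5X stock 250/500 nM) in pH 8.0 Tris/NaCl/TCEP buffer, beads added, then incubated 1 h, 37 C, dark.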
D2 ag = agonists of human D2 dopamine receptor (beta-arrestin). DiscoveRx PathHunter D2 beta-arrestin, luminescence, 90 min; 100% = 57 uM dopamine signal. activation, % (concentration not given with the values). actives 0.084% (n = 360,000); in the data active = activation above about 40%; inconclusive = about 15% to 40%; inactive = below about 15%; note: compound concentration not given in the record; the text of the record calls up to 30% inactive
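Agonist mode: compounds alone added to overnight-plated D2 PathHunter cells for 90 min at 37 C, with 57 uM final dopamine (EC100) defining full response. Beta-arrestin recruitment detected by chemiluminescent reagent, read after 1 h at ambient temperature.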
TRPML1 ag = activates the human TRPML1 channel; activation, % (no concentration beside the values); actives 0.12% (n = 410,000); AID 624414; TRPML1-expressing cells, Ca2+ dye fluorescence, FDSS; host cell line not named in the record; reference of the full effect not given here; in the data active = activation above about 50%; inconclusive = about 30% to 50%; inactive = below about 30%; note: 0% is about no effect; the text of the record puts the active cut at 80%
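Tet-induced TRPML1-DL cells, 1,500 per well, cultured overnight, were loaded with a no-wash Ca2+ dye for 45–90 min. Calcium fluorescence was recorded on the FDSS for 110 s after compound addition, before the EC80 agonist (4 uM 54-4) was added.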
PINK1 modulator = modulators of PINK1 expression | PINK1 immunofluorescence, high-content cytometry, 24 h | Potency, µM (top dose mostly 76.6 µM), inactives show top-dose activation (PINK1 increase), usual class: activators | actives 0.2% (n = 410,000); active = well fitted activation curve with a large enough effect; inconclusive = small, poorly fitted or top-dose-only effect; inactive = flat fitted curve, though single readings scatter; cell line not stated here;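 note: potency is the fitted concentration of half-maximal effect; % of control where 0% means no effect; nearly all actives have a fitted effect of over 65% in size; a mitochondrial uncoupler was the plate control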
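Stable cell line treated 24 h with compounds at 5 concentrations (CCCP controls), then fixed and immunostained for PINK1 plus nuclear and cell stains; PINK1 immunofluorescence quantified by laser-scanning microplate cytometry.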
TRPML1 blocker = human mucolipin-1 channel inhibition. actives 0.02% (n = 390,000). TRPML1-inducible cells, Ca2+ dye fluorescence, FDSS; stronger effect = lower value; inhibition of EC80 agonist-evoked calcium signal. activity change, negative = inhibition, % (test concentration not listed). Q9GZU1; in the data active means activity change below about -50%; inconclusive means about -30% to -50%; inactive means above about -30%;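 note: stimulus is agonist 54-4 at its EC80 concentration; % is set by controls: 0 for no effect and ±100 for the full control effect; compound concentration not given in the record; the text of the record puts the active cut at -80%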
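Calcium fluorescence in TRPML1-DL cells induced overnight with Tet: a 110 s read after compound pin addition, then a 110 s antagonist read after challenge with 54-4 at 4 uM final (EC80).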
D2 potentiator = potentiates the human D2 dopamine receptor allosterically; AID 624464; P14416; potentiation, % (concentration not given with the values); actives 0.23% (n = 360,000); DiscoveRx D2 beta-arrestin cells, luminescence, 90 min; 100% = 57 uM dopamine signal; active = potentiation of 50% or more; inconclusive = 30% to 50%; inactive = 30% or less;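 note: compound concentration not given in the record; tested on top of an EC20 dose of dopamine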
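PathHunter D2 cells, attached overnight at 37 deg C, received compound in DMSO plus dopamine at EC20 (50 nM final) for 90 min at 37 deg C. Beta-arrestin recruitment was read as luminescence after 1 h with detection reagent at ambient temperature.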
Active calls of the source: *; ? = inconclusive; · = not tested or not shown; [ ] = dose if it differs, or a comment. Some of the compounds tested, so the mix of outcomes need not match the whole.

SMILES	Six1-Eya2 blk	D2 ag	TRPML1 ag	PINK1 modulator	TRPML1 blocker	D2 potentiator
O=C(CN1CC=C(c2ccccc2)CC1)NC(=O)NCc1ccccc1	-20	-3.4	0.5	1.4%	3	-5
Cc1c2ccncc2c(C)c2c1[nH]c1ccccc12	-2	-8.4	6.1	-0.9%	5	-5
COc1ccc(OC)c(/C=N/OC(=O)Nc2ccc(Cl)cc2)c1	-7	-1.0	2.0	-0.2%	10	-4
CC(C)(C)NC(=O)Cn1cc(C(=O)c2ccccc2F)c2ccccc21	1	-2.0	2.9	1.1%	-4	-8
COc1ccc(C(CC(=O)N2CCC3(CC2)OCCO3)NS(=O)(=O)c2ccc(OC)cc2)cc1 (stereo not given)	8	-1.7	-0.2	1.2%	32	-9
Cc1ccc(C(=O)N[C@@H](C)CN2C3=NC[C@H](Cc4ccccc4)N3C[C@H]2Cc2ccc(O)cc2)cc1Br	-8	-2.5	-0.5	-1.3%	-1	-106
Cc1nc2ccccc2c(=O)n1-c1ccc(Br)cc1[N+](=O)[O-]	4	-4.9	0.1	1.1%	44	-1
COCCNC(=O)c1c(N)n(CCC(C)C)c2nc3ccccc3nc12	41	-5.5	0.8	1.3%	10	-27
CCC1(CC)C(=O)NC(=Nc2cccc(C(F)(F)F)c2)NC1=O	4	-5.9	-0.1	1.5%[38.3 µM]	22	5
Cc1cc(Cl)ccc1OC(C)C(=O)O (stereo not given)	10	-5.8	0.1	0.3%	43	-4
COc1ccc(CN2Cc3cc(-c4cccc(F)c4)ccc3-n3nncc3C2)cc1	-29	2.3	-0.2	4.0%	·	0
CCn1c(O)c(N=Nc2cccc(S(=O)(=O)N3CCOCC3)c2)c(=O)n(CC)c1=S	-9	-2.0	1.4	0.1%	-21	-6
Cc1noc(C)c1CC(=O)N1CCCC(N2CCN(c3ccccc3F)CC2)C1 (stereo not given)	-1	-0.3	-0.1	2.6%	-2	-24
N=c1n(CCO)c2ccccc2n1Cc1ccccc1	5	1.2	0.6	-3.0%	4	-13
CCCCNC(=O)CN1C(=O)CN=C(c2ccccc2)c2ccccc21	3	-7.4	-0.7	-0.6%	3	-15
O=c1[nH]c(=O)n(CCc2ccc(F)cc2)c(O)c1/C=N/N1CCCCC1	5	-5.4	0.0	4.9%	7	-5
CCCOC(=O)c1ccc(-[n+]2c(-c3ccccc3)cc(-c3ccccc3)cc2-c2ccccc2)cc1	-7	4.8	1.7	?	-7	-52
CC(C)(C)c1cc(OC(=O)Cc2ccccc2)ccc1O	-1	·	0.7	9.6%	-7	0
Cc1cc(=O)oc2c(C)c(OCC(=O)N3C[C@H]4C[C@@H](C3)c3cccc(=O)n3C4)ccc12	1	-3.9	·	1.5%	·	-25
O=C(C1CCCO1)N1CCC2(CC1)OCCO2 (stereo not given)	9	5.4	0.0	5.2%[38.3 µM]	-3	-6

The last 2 records of the part before lead into the next:
SMILES	Six1-Eya2 blk	D2 ag	TRPML1 ag	PINK1 modulator	TRPML1 blocker	D2 potentiator
Cc1cc(=O)oc2c(C)c(OCC(=O)N3C[C@H]4C[C@@H](C3)c3cccc(=O)n3C4)ccc12	1	-3.9	·	1.5%	·	-25
O=C(C1CCCO1)N1CCC2(CC1)OCCO2 (stereo not given)	9	5.4	0.0	5.2%[38.3 µM]	-3	-6
C=CCN1C(=O)/C(=C/c2ccc(N3CCOCC3)o2)C(=O)NC1=S	-10	-8.1	2.5	1.7%	20	-4
COC(=O)C1=C(c2cc3ccccc3s2)C[C@@H]2CC[C@H]1N2C(=O)NCc1ccco1	-10	-1.2	0.4	2.1%	14	-45
CCn1c(O)c(C=NCc2cccs2)c(=O)[nH]c1=O	7	-3.4	0.7	-0.4%	-8	0
CCc1nc2ccccc2c(=O)n1-c1cccc(OC)c1	-2	-1.5	0.9	-3.4%[38.3 µM]	-4	-7
Cn1c(O)c(/C=C2\C=Nc3ccccc32)c(=O)n(C)c1=O	0	-0.8	-0.7	-0.2%	-6	1
COC1=CC2C3Cc4ccc(OC)c(O)c4C2(CCN3C)CC1=O (stereo not given)	2	0.8	0.2	0.9%	1	-3
O=C1C2CCCN2C(c2ccc(Cl)cc2)N1c1ccccn1 (stereo not given)	0	-2.7	2.2	2.1%	2	-7
CCC(C)n1c(O)c(/C=N/N2CCOCC2)c(=O)[nH]c1=S (stereo not given)	0	-2.0	0.1	-0.5%	14	1
O=C(c1ccccc1F)c1cn(CC(=O)N2CCOCC2)c2ccccc12	-1	-1.8	1.6	-1.3%	6	-6
O=C1CC(N2CC2)C(=O)N1c1ccccc1 (stereo not given)	-3	-0.4	0.0	0.4%	14	4
CC(=O)c1cn(CC(=O)NCCc2c[nH]c3ccccc23)c2ccccc12	1	-1.5	0.0	-0.5%	-5	-2
O=C1NC(=O)C(=Cc2cc3c(cc2[N+](=O)[O-])OCO3)C(=O)N1	-14	·	0.2	3.7%	2	27
O=C1NC(=O)C(Nc2ccccc2)C(=O)N1	-11	-3.5	-0.3	0.6%	-8	-3
CCCCOc1ccc(CN2CCN(CC)CC2)cc1	-5	-1.8	-0.3	0.9%	0	-18
O=C1c2ccccc2-c2cc3ccccc3cc21	20	-0.1	2.7	-2.2%	18	-7
COc1ccc(Cn2c(N)c(C(=O)NCc3ccco3)c3nc4ccccc4nc32)cc1	17	-2.8	-0.1	8.3%	0	8
C=C[C@@H]1C2=CCOC(=O)C2=CO[C@H]1O[C@@H]1O[C@H](CO)[C@@H](O)[C@H](O)[C@H]1O	7	-0.1	-0.4	1.0%	11	4
Cc1c(C(=O)C(=O)N2CCC3(CC2)OCCO3)c2ccccc2n1C	0	-5.9	-1.0	-0.3%	-1	-3
Cc1ccc(OP(N)(=O)Oc2ccc(C)cc2)cc1	2	6.7	0.3	1.8%	28	9
COc1ccc(C(=O)OC2C[C@H]3CC[C@@H](C2)N3O)cc1OC (stereo not given in full)	12	7.5	1.2	0.8%	-8	9
O=C(c1cc(S(=O)(=O)N2CCC3(CC2)OCCO3)ccc1F)N1CCC2(CC1)OCCO2	-7	-6.7	0.5	0.1%	-6	-4
CCC(C)C(=O)N[C@@H](c1ccccc1)[C@@H](O)C(=O)O[C@H]1C[C@@]2(O)[C@@H](OC(=O)c3ccccc3)C3[C@](C)(C(=O)[C@H](OC(C)=O)C(=C1C)C2(C)C)[C@@H](O)C[C@H]1OC[C@@]31OC(C)=O (stereo not given in full)	2	-0.8	0.8	8.7%	39	-2
CCC(C)NC(=O)c1c(N)n(Cc2ccc3c(c2)OCO3)c2nc3ccccc3nc12 (stereo not given)	38	-4.2	-0.2	0.5%	11	-18
COc1ccc(C(O)c2cc(OC)ccc2OP(=O)(N(C)C)N(C)C)cc1 (stereo not given)	-1	-3.8	1.2	3.0%	0	-17
COc1ccc(C2(C#N)CC[N+](C)(C)CC2)cc1	9	-1.9	0.5	0.8%	-22	-6
CN1C2CNC(=O)CC1C1CCC2C1 (stereo not given)	0	-6.6	0.1	0.9%	-3	-6
CNC(=O)O/N=C(\N)Cc1csc2ccc(Cl)cc12	4	·	-0.7	-3.7%	13	23
COc1cc([N+](=O)[O-])c2ncccc2c1[N+](=O)[O-]	-83*	3.6	0.7	0.6%	·	9
CC1=C2[C@@H]3OC(=O)[C@H](C)C3CC[C@@]2(C)C=CC1=O (stereo not given in full)	0	-3.6	0.8	-0.3%	-8	-7
C[N+]12CN3CN(CN(C3)C1)C2	5	-2.6	-0.5	2.7%	5	-13
Cc1cccc(N2C(=O)NC(=O)/C(=C/c3ccc([N+](=O)[O-])o3)C2=O)c1	?	3.7	1.0	2.0%	1	-6
O=[N+]([O-])c1cccc(NP(=O)(N2CC2)N2CC2)c1	-3	-4.5	-0.8	-2.5%	3	-8
CN(C=O)CP(=O)(O)CN(C)C=O	4	-1.0	-1.5	-1.7%	34	15
COc1ccc(OCC(=O)N2CCN(Cc3cc(=O)n4nc(-c5ccc(OC)cc5)sc4n3)CC2)cc1	·	·	-0.1	-0.3%	-8	·
CCC(Oc1cc(Cl)ccc1Cl)C(=O)N1CCC2(CC1)OCCO2 (stereo not given)	1	-3.3	-0.5	-0.6%	12	9
C=CCn1c(O)c(C(C)=NC2CCN(Cc3ccccc3)CC2)c(=O)[nH]c1=O	-11	-5.0	0.8	-1.0%	7	-22
CCCNC(=O)c1c(N)n(CC2CCCO2)c2nc3ccccc3nc12 (stereo not given)	35	-1.2	5.0	-1.0%	-17	8
O=C1NS(=O)c2cc([N+](=O)[O-])cc([N+](=O)[O-])c21 (stereo not given)	9	5.2	0.3	0.9%	10	9
COCc1cc(OC(=O)N(C)C)nc(-c2ccccc2)n1	2	-2.6	-0.2	2.5%	18	·
Cc1ccc(C)c(NC(=S)NCCc2cnc[nH]2)c1	0	-3.0	0.5	-1.3%	19	-2

Record cards (already shown):
CNC(=O)O/N=C(\N)Cc1csc2ccc(Cl)cc12 as listed: Six1-Eya2 blk: 4; D2 ag: ·; TRPML1 ag: -0.7; PINK1 modulator: -3.7%; TRPML1 blocker: 13; D2 potentiator: 23
COc1ccc(C(CC(=O)N2CCC3(CC2)OCCO3)NS(=O)(=O)c2ccc(OC)cc2)cc1 (stereo not given) as listed: Six1-Eya2 blk: 8; D2 ag: -1.7; TRPML1 ag: -0.2; PINK1 modulator: 1.2%; TRPML1 blocker: 32; D2 potentiator: -9

Continuation.
SMILES	Six1-Eya2 blk	D2 ag	TRPML1 ag	PINK1 modulator	TRPML1 blocker	D2 potentiator
Nc1c(C(=O)NCc2ccco2)c2nc3ccccc3nc2n1Cc1ccccc1	4	-2.3	0.0	8.2%	13	-9
O=C(c1ccc2nc(-c3ccco3)c(-c3ccco3)nc2c1)N1CCC2(CC1)OCCO2	-1	0.5	-0.5	-1.5%	-10	·
O=C(c1cc(Br)ccc1Cl)N1CCC2(CC1)OCCO2	0	-2.0	0.4	3.1%[38.3 µM]	10	-5
COC(=O)C1=C(c2ccc(F)cc2OCc2ccccc2)C[C@@H]2CC[C@H]1N2C(=O)NCc1ccccc1C(F)(F)F	1	-3.0	1.0	-0.5%	39	-10
C[C@]12CC[C@H](O)C[C@H]1CC[C@@H]1C2CC[C@]2(C)[C@@H](C3=CC(=O)OC3)[C@@H](O)C[C@]12O (stereo not given in full)	6	0.8	-0.3	-0.8%	10	3
C=CCn1c(O)c(C(C)=NCCc2ccccc2)c(=O)[nH]c1=O	2	-1.5	0.3	0.6%	1	-7
C=CCCC1(CC)C(=O)NC(=S)NC1=O	3	-5.0	0.0	-3.5%	-9	-14
Cc1ccc(OCC(=O)Nc2ccc(Cl)cc2C(=O)c2ccccc2)c(Br)c1	·	·	3.4	2.6%	-1	·
C=C1C(O)(c2ccccc2)C2CC[N+]1(C)CC2 (stereo not given)	1	-1.2	0.1	1.7%[38.3 µM]	1	-2
CN(C)CCN=Cc1c(O)n(-c2cccc(C(F)(F)F)c2)c(=O)[nH]c1=O	0	-1.6	-0.3	0.4%[38.3 µM]	-9	-16
Cc1[nH]c2ccccc2c1CCCNC1CCCCC1	-15	-8.4	0.7	-3.4%	-17	-30
Cc1cc(OCC(=O)O)c2c3c(c(=O)oc2c1)CCCC3	-3	-0.9	2.2	0.3%	-7	4
